ClpP mod – qHTS Assay for Activators of ClpP; purified B. subtilis ClpP, FRET peptide cleavage, 20 min; ATP-dependent Clp protease proteolytic subunit (Bacillus subtilis (strain 168)), P80244; 340,000 compounds, 1.9% hits; Potency, µM (top dose mostly 57.5 µM), without a hit: at the highest dose activity change, negative = active; active = well fitted falling curve with a large enough effect; inconclusive = small, poorly fitted or top-dose-only effect; inactive = no such curve, though single readings can be large or run the other way; note: potency is the fitted concentration of half-maximal effect; the source files actives as falling curves though it sought activators and does not explain the sign; nearly all actives have a fitted effect of over 65% in size; many hits overshoot -100%
Target sequence (P80244 whole entry, looked up): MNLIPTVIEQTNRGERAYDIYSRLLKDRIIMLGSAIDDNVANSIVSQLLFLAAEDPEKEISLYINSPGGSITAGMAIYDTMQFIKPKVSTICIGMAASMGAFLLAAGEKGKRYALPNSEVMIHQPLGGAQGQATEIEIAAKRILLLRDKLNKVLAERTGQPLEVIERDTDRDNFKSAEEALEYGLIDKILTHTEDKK
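FRET quenching reversal measured ClpP activation: 10 microg/mL B. subtilis ClpP at pH 8 with the FRET-FV decapeptide, read at 430 nm after 320 nm excitation. The 20-min minus 0-min signal was scaled between DMSO/no-enzyme wells and ADEP (5.8 microM final).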
Sfp inh – blocks B. subtilis Sfp PPTase activity | Q9F4F7 | Biochemical Sfp PPTase activity, qHTS | Potency, µM, for inactives: max response, negative = inhibition, hits mostly inhibitors | 310,000 compounds, 3.5% hits; active = well fitted inhibition curve with a large enough effect; inconclusive = small, poorly fitted or top-dose-only effect, or another doubt; inactive = no such curve, though single readings can be large or run the other way;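 note: the enzyme is Sfp with the accession as filed and its product quenches rhodamine fluorescence; potency is the fitted concentration of half-maximal effect; 0% = enzyme reaction without inhibitor and -100% = no enzyme wells; top concentration of the series not given in the record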
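Step 1, compound plus 15 nM Sfp-PPTase, 15 min, room temperature. Step 2, add rhodamine-CoA (5 uM) and BHQ-2-YbbR (12.5 uM). Step 3, read 525/598 nm fluorescence at 0 and 30 min.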
gsp agonist – agonists of gsp mutant (McCune-Albright syndrome); gsp mutant cells, cAMP HTRF, 30 min; control for the full effect not named in the record; 340,000 compounds, 0.13% hits; AID 624287; Potency, µM (top dose mostly 76.9 µM), inactives show top-dose activation (cAMP increase), hits mostly activators; active = well fitted activation curve with a large enough effect; inconclusive = small, poorly fitted or top-dose-only effect, or another doubt; inactive = no such curve, though single readings can be large or run the other way; cell line not stated here;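 note: phosphodiesterase inhibitor Ro 20-1724 added with compounds to block cAMP breakdown; potency is the fitted concentration of half-maximal effect; nearly all actives have a fitted effect of over 60% in size; about a fifth of the inactives were tested at one dose only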
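Cells in DMEM/10% FBS with G418 were pretreated with compounds in DMSO plus […] (300 uM stock) for 30 min at 37C. cAMP was measured by HTRF (cAMP-d2 plus anti-cAMP antibody-K) after 30 min at room temperature.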
gsp antag – gsp mutant antagonism | AID 624288 | Potency, µM (top dose mostly 76.9 µM), for the others: top-dose activity change, negative = inhibition, usual class: inhibitors | 340,000 compounds, 0.4% hits | gsp-mutant cells, cAMP HTRF, 30 min; control for the full effect not named in the record; active = falling curve of any shape with a large fitted effect; inconclusive = falling curve, mostly with a smaller effect; inactive = flat or rising curve; cell line not stated here;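 note: intracellular cAMP measured with PDE inhibitor Ro 20-1724 present during compound exposure; potency is the fitted concentration of half-maximal effect; % is set by controls: 0 for no effect and ±100 for the full control effect; nearly all actives have a fitted effect of over 65% in size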
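HTRF cAMP measurement after 30 min RT detection following 30 min, 37C compound treatment alongside […] (added as 300 uM solution) in G418-selected cells seeded at 2000/well and grown 16–24 h.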
Menin MLL FP FL – menin-MLL binding inhibition, fluorescein peptide. Fluorescence polarization, fluorescein-MLL peptide displacement from menin. FP activity change, % at 61.4 µM. 290,000 tested, under 10 active. AID 1766; inconclusive = falling polarisation curve, or a change in total fluorescence; inactive = total fluorescence flat and polarisation flat or rising; no compound was filed as active; the % refers to the polarisation; negative = inhibition;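 note: % of control where 0% means no effect; inhibitors lower the polarisation; unlabelled MLL peptide was the positive control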
TRPV1 PAM – human TRPV1 potentiation; potentiation, % at 8.33 µM; TRPV1-expressing cells, Fluo-8 calcium influx, capsaicin EC20 potentiation; host cell line not named in the record; control for the full effect not named in the record; 320,000 compounds, 0.02% hits; active means potentiation above 80%; inconclusive means 30% to 80%; inactive means below 30%; note: 0% is about no effect
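TRPV1-expressing cells were cultured overnight at 35.5C and loaded with Fluo-8 calcium dye for 40 to 90 min at room temperature. After a 10 s baseline, compound was added and calcium influx was read kinetically for 3 min (ex 480/em 520 nm).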
TRPML1 inh – human mucolipin-1 channel inhibition | AID 624415 | 390,000 compounds, 0.02% hits | Q9GZU1 | TRPML1-inducible cells, Ca2+ dye fluorescence, FDSS; stronger effect = lower value; inhibition of EC80 agonist-evoked calcium signal | activity change, negative = inhibition, % (concentration not given with the values); in the data active means activity change below about -50%; inconclusive means about -30% to -50%; inactive means above about -30%;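 note: stimulus is agonist 54-4 at its EC80 concentration; % is set by controls: 0 for no effect and ±100 for the full control effect; the text of the record puts the active cut at -80%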
Target sequence (Q9GZU1 whole entry, looked up): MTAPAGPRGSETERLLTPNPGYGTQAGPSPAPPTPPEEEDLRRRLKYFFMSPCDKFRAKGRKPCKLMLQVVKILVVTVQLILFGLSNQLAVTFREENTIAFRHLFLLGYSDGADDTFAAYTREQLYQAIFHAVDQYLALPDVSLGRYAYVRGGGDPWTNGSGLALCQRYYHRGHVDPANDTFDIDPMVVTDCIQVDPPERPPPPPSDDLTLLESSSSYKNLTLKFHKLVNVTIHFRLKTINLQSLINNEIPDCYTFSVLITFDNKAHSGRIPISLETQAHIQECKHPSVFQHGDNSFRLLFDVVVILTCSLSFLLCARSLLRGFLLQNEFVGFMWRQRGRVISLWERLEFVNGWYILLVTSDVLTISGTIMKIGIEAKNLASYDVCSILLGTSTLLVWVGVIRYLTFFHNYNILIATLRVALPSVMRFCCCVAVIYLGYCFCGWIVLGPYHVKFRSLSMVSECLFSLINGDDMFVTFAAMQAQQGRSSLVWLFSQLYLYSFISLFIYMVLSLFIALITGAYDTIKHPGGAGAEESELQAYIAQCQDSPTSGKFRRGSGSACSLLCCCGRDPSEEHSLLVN
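Tet-induced TRPML1-DL cells loaded with Ca8 no-wash calcium dye were read kinetically on FDSS. Compound addition was followed by EC80 agonist 54-4 (4 uM final); inhibition was read over 110 s.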
The depositor's hits bear a star; ? = inconclusive; nt = no result given; & = joins results of further samples; [ ] = dose if it differs, or a comment. An unsorted share of the library. Share with any hit: about 4.9%.

Values run as follows: ClpP mod	Sfp inh	gsp agonist	gsp antag	Menin MLL FP FL	TRPV1 PAM	TRPML1 inh
CCOC(=O)C(=O)N1CCN(c2nc(-c3ccc(Cl)cc3)cs2)CC1
→ nt	-6%	-42%[inhibitor]	-25%	-5.4	-2	-8
CC(C)Cc1cc(CNC(=O)C2CCC(=O)N(CCc3cccc(F)c3)C2)on1 (stereo not given)
→ -1.0%	7%	13%	5%	-0.2	-5	-5
O=C(c1ccc2c(c1)OCO2)N1CCN(S(=O)(=O)c2ccc(Br)cc2Cl)CC1
→ -0.1%	nt	-26%	-14%	nt	-2	-9
CC(=O)C1=C(C)OC(N)=C(C#N)C1c1cccc2ccccc12 (stereo not given)
→ -1.5%	-25%	-2%[15.4 µM]	-3%	3.1	8	-6
CCCCn1c2c(c(=O)n(C)c1=O)C(c1ccc(OC)cc1)N1CCCCCC1=N2 (stereo not given)
→ ?	-4%	-6%	-9%	-0.6	24	-1
N/C(=N\OC(=O)Cc1ccccc1[N+](=O)[O-])c1cccc(Br)c1
→ 0.2%	1%	-20%	1%	-5.5	2	-8
CSC1=NC(=O)/C(=C\c2cccc3ccccc23)S1
→ nt	-13%	15%[15.4 µM]	-12%	5.8	?	-16
CN(C)/C=N/c1ncc(C(=O)c2ccc(Cl)cc2)s1
→ -1.6%	19%	28%	-8%	1.4	-18	-3
CCN(CCCNC(=O)c1ccc(N2CCCC2=O)cc1)c1cccc(C)c1
→ 1.5%	8%	1%	-15%	1.6	3	13
COc1cccc(C2CCCN2Cc2nc(CCC(C)C)no2)c1 (stereo not given)
→ -2.8%	-8%	3%	2%	11	-19	-2

Next part.
Values run as follows: ClpP mod	Sfp inh	gsp agonist	gsp antag	Menin MLL FP FL	TRPV1 PAM	TRPML1 inh
Cc1ccc(N(CC(=O)NCCc2ccc(F)cc2)S(=O)(=O)c2ccc(Cl)c([N+](=O)[O-])c2)c(C)c1
→ 1.4%	18%	-31%[inhibitor]	25µM*	2.1	0	69
CCOC(=O)c1cccc(C(=O)Nc2nc3ccc(OC)cc3s2)n1
→ 1.1%	-12%	-14%	11%	-5.0	?	2
COc1ccccc1C(=O)NC(CCSC)C(=O)OC(C)C(=O)NC1CC1 (stereo not given)
→ 0.8%	nt	0%	6%	nt	5	36
CN1/C(=C/C(=O)COC(=O)C2COc3ccccc3O2)C(C)(C)c2ccccc21 (stereo not given)
→ 5.9%	nt	-3%[15.4 µM]	6%	nt	nt	-23
COc1cccc(S(=O)(=O)Nc2ccc3c(c2)[C@H]2C[C@H](CC(=O)N[C@@H](C)c4ccccc4)O[C@H](CO)[C@H]2O3)c1
→ -0.6%	nt	?	nt	nt	nt	9
NC(=O)c1ccsc1NC(=O)COC(=O)c1cc(=O)[nH]c2ccccc12
→ 2.0%	nt	-5%	-8%	nt	-26	1
CCC1CO/C(=C(\C(Cl)=C(Cl)Cl)[N+](=O)[O-])N1 (stereo not given)
→ nt	3%	-3%[15.4 µM]	1%	6.0	-15	-3
CC(=O)Oc1ccc(-c2nc3c(C)cccc3c(=O)o2)cc1
→ -2.1%	-22%	-11%[15.4 µM]	-15%	-2.2	-1	3
COc1ccc(C(=O)N2CCN(c3ccc(C)c(C)c3)CC2)cc1OC
→ 2.7%	4%	-2%	-15%	2.6	nt	2
FC(F)(F)c1cccc(NC(=S)Nc2ccc(Cl)cc2Cl)c1
→ -0.6%	?	-44%[inhibitor]	8%	2.8	-2	-17

Next records.
Values run as follows: ClpP mod	Sfp inh	gsp agonist	gsp antag	Menin MLL FP FL	TRPV1 PAM	TRPML1 inh
Cc1cc(C(=O)NNC(=O)C(C)(C)Oc2ccc(Cl)cc2)c(C)o1
→ -1.4%	nt	-14%	-2%	nt	nt	-1
O=C1/C(=C/c2ccccc2)CCCc2ccccc21
→ -4.0%	-9%	-1%	-26%	-0.8	-18	77
COc1cc(-c2noc(C)c2/C=C/c2cccc([N+](=O)[O-])c2)cc(OC)c1OC
→ -0.8%&0.1%	-17%	?	6%	4.3	-26	37
CCC(C)NC(=O)C1=C(C)C(=O)OC12CCC(C)CC2 (stereo not given)
→ -1.1%	18%	?	5%	1.7	1	6
CC1CCN(C(=O)CC(NC(=O)c2ccccc2Cl)c2ccccc2)CC1 (stereo not given)
→ 0.4%	9%	10%[15.4 µM]	10%	nt	-1	-7
COCc1cc(C)nc(SCC[N+](C)(C)CC(=O)Nc2cccc(C)c2)c1C#N
→ -1.8%	3%	12%[15.4 µM]	11%	-0.5	1	11
CC(=O)c1ccc(CCCCc2ccc(C(C)=O)cc2)cc1
→ nt	nt	8%	1%	nt	nt	42
Cc1ccn(CCC(=O)NC2CCCc3c2cnn3-c2cccc(C)c2C)n1 (stereo not given)
→ -0.5%	6%	-36%[inhibitor]	10%	-8.8	-9	13
Cc1ccc(S(=O)(=O)NC(C)(C)CN2CCNCC2)cc1
→ -1.9%	4%	1%	7%	2.8	8	-15
COc1cc(/C=C/[N+](=O)[O-])ccc1OC(=O)c1cc2ccccc2oc1=O
→ nt	3.5µM*	-34%[inhibitor]	-18%	-2.0	6	-18

No new results follow: an excerpt of the list.
Values run as follows: ClpP mod	Sfp inh	gsp agonist	gsp antag	Menin MLL FP FL	TRPV1 PAM	TRPML1 inh
Cc1cc(C(=O)NNC(=O)C(C)(C)Oc2ccc(Cl)cc2)c(C)o1
→ -1.4%	nt	-14%	-2%	nt	nt	-1
O=C1/C(=C/c2ccccc2)CCCc2ccccc21
→ -4.0%	-9%	-1%	-26%	-0.8	-18	77
COc1cc(-c2noc(C)c2/C=C/c2cccc([N+](=O)[O-])c2)cc(OC)c1OC
→ -0.8%&0.1%	-17%	?	6%	4.3	-26	37

Next part:
Values run as follows: ClpP mod	Sfp inh	gsp agonist	gsp antag	Menin MLL FP FL	TRPV1 PAM	TRPML1 inh
O=C(CN1CCN(C(=O)c2c(F)cccc2F)CC1)Nc1ccccc1F
→ -2.6%	14%	13%	0%	1.9	5	4
O=C(N/N=C\CCc1ccccc1)c1ccco1
→ -1.5%	19%	?	24%	2.9	-5	-16
O=C(CN1C(=O)C(=O)N(C2CCCC2)C1=O)Nc1ccc(Cl)cc1C(F)(F)F
→ -1.6%	nt	-42%[inhibitor]	14%	nt	-2	-12
Cc1c(OC(C(=O)O)c2ccccc2)ccc2c(-c3ccccc3)cc(=O)oc12 (stereo not given)
→ nt	9%	0%[15.4 µM]	-1%	-0.1	-4	-10
CC(OC(=O)CCCC(=O)Nc1ccccc1)C(=O)c1ccccc1 (stereo not given)
→ nt	19%	-16%	0%	nt	-17	-6
COc1ccccc1N1C(=O)S/C(=C\c2ccc(C)s2)C1=O
→ 1.0%	7%	-37%[inhibitor]	2%	0.5	-13	6
Cc1ccc(-n2ncc3c(NCCCn4ccnc4)ncnc32)c(C)c1
→ -14%	15%	-25%	5%	3.3	5	-7
COc1cccc(CNCCc2c[nH]c3ccccc23)c1OCc1ccc(F)cc1
→ -0.4%	-28%	6%	0%	0.9	-8	35
O=C(CCS(=O)(=O)c1ccc(F)cc1)Nc1nnc(-c2ccc(F)cc2)o1
→ 1.1%	nt	11%[15.4 µM]	4%	nt	-3	16
CCn1ncc([N+](=O)[O-])c1C(=O)NC1CCCCC1
→ -3.8%	0%	-4%	-16%	1.6	?	-1

Remaining list, next part:
Values run as follows: ClpP mod	Sfp inh	gsp agonist	gsp antag	Menin MLL FP FL	TRPV1 PAM	TRPML1 inh
O=C(CN1C(=O)c2ccccc2S1(=O)=O)NCCSc1ccccc1
→ -0.2%	12%	0%	1%	6.1	-3	-13
Cc1ccc(CCNC(=O)CCSCc2ccc(Cl)cc2)cc1
→ 1.5%&5.6%	16%	-27%	2%	3.7	-11	-8&4
O=C(NCCCN1CCOCC1)c1cc(Cl)ccc1Cl
→ -0.6%	9%	-2%	5%	0.0	-5	-9
CCn1c(SCc2ccc([N+](=O)[O-])cc2)nnc1C(C)NC(=O)c1ccccc1Br (stereo not given)
→ -0.1%	-2%	-10%	-9%	-0.5	-14	-14
Cc1cc(/C(N)=N/OC(=O)c2ccccc2Cl)no1
→ nt	5%	?	-1%	2.4	nt	-5
Cc1cc(C)c2c(CC(=O)NNC(=O)c3ccccc3)coc2c1
→ -1.8%	8%	?	3%	-2.2	-3	-5
Cn1c(O)c(N=NC(=O)c2ccccc2O)c2ccccc21
→ nt	?	9%[15.4 µM]	-31%	-2.3	-24	-14
CCOc1ccc(CN2CCN(Cc3ccon3)CC2CCO)cc1 (stereo not given)
→ nt	9%	18%	11%	-1.7	-3	-12
COc1ccccc1N1CCN(CC(=O)Nc2ccnn2C2CCCC2)CC1
→ -3.5%	nt	-2%	3%	nt	5	17
Cc1cccc2sc(N(CCCN(C)C)C(=O)c3ccc(Cl)s3)nc12
→ -5.5%	?	1%	8%	3.9	?	21&-14

(next part)
Values run as follows: ClpP mod	Sfp inh	gsp agonist	gsp antag	Menin MLL FP FL	TRPV1 PAM	TRPML1 inh
Cc1ccc(S(=O)(=O)N(C)C)cc1NC(=O)COC(=O)c1ccc2c(=O)n3c(nc2c1)CCC3
→ -8.2%	nt	-29%	-2%	nt	7	-22
CCCCCCCCN=C1NC(=O)CS1
→ -0.1%	-17%	-60%[inhibitor]	6%	3.4	-31	11
COc1ccc(CNc2nc3nc(C)c(Cl)c(C)n3n2)cc1OC
→ -7.2%	nt	?	1%	nt	nt	31
CC1(OC(=O)C2CCCC2)C(=O)C=C2C=C(c3ccsc3)N(C3CC3)C=C2C1=O (stereo not given)
→ -2.9%	-5%&-6%	nt	-8%	?	-22	2
O=C(CS(=O)(=O)c1ccc(F)cc1)Nc1nnc(-c2ccccc2Cl)o1
→ 2.9%	nt	3%	-6%	nt	8	-5
CCCOC(=O)c1cc(-c2ccc(/C=C3/C(=O)N(C)C(=O)C(C#N)=C3C)o2)ccc1Cl
→ 2.7%	nt	14%	-18%	nt	nt	-15
